LASV entry inh: Lassa virus entry inhibition; Lassa virus pseudotype entry inhibition, cell reporter; control for the full effect not named in the record; Potency, µM (titrated, usually from 37.9 µM), for the others: at the highest dose activity change, negative = inhibition, usual class: inhibitors; actives 1.2% (n = 300,000); active means well fitted inhibition curve with a large enough effect; inconclusive means small, poorly fitted or top-dose-only effect, or effect the other way; inactive means flat fitted curve, though single readings scatter; tested in HEK293 cells; also: % is scaled to controls: 0 for no effect and ±100 for the full control effect; nearly all actives have a fitted effect of over 50% in size; luciferase read-out
Marburg entry inh: Marburg virus entry inhibition; Potency, µM (doses to about 37.8 µM), for the others: top-dose activity change, negative = inhibition, actives largely listed as inhibitors; Marburg virus pseudotyped entry inhibition, cell reporter; control for the full effect not named in the record; about a third of the inactives were read at about 46 µM; actives 1.8% (n = 300,000); active = well fitted inhibition curve with a large enough effect; inconclusive = small, poorly fitted or top-dose-only effect, or effect the other way; inactive = flat fitted curve, though single readings scatter; tested in HEK293 cells; about a fifth of its hits are not listed in these tables; also: % is scaled to controls: 0 for no effect and ±100 for the full control effect; luciferase read-out
SARS PLP yeast: inhibitors of SARS-CoV papain-like protease in yeast | S. cerevisiae expressing SARS-CoV PLpro, growth rescue; control for the full effect not named in the record | Potency, µM (series often up to 32.9 µM), inactives show at the top dose activity, positive = growth rescue | actives 0.19% (n = 330,000) | AID 485353; also: 0% is about no effect; nearly all actives have a fitted effect of over 55% in size; growth read by luminescence after 48 h
StopGo reporter: lowers the luciferase signal of an FMDV 2A StopGo reporter. human cells with a luciferase reporter of 2A StopGo recoding; control for the full effect not named in the record. Potency, µM (top dose mostly 57.9 µM), without a hit: at the top dose signal change, negative = less light. actives 1.2% (n = 410,000); active = well fitted falling curve with a large enough effect; inconclusive = small, poorly fitted or top-dose-only effect; inactive = no such curve, though single readings can be large or run the other way; tested in HEK293T cells; also: % is scaled to controls: 0 for no effect and ±100 for the full control effect; nearly all actives have a fitted effect of over 45% in size; luciferase light after 4 h
RE007 growth inh: less growth of the S. pombe RE007 Vpr strain | S. pombe RE007 Vpr strain, BacTiter-Glo ATP luminescence, 24 h; control for the full effect not named in the record | Potency, µM (top dose mostly 92.2 µM), for the others: at the highest dose activity change, negative = less growth | actives 0.21% (n = 360,000) | AID 651644; active = well fitted falling curve with a large enough effect; inconclusive = small, poorly fitted or top-dose-only effect; inactive = no such curve, though single readings can be large or run the other way;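 also: % is scaled to controls: 0 for no effect and ±100 for the full control effect; nearly all actives have a fitted effect of over 50% in size; the assay follows cell death caused by Vpr and the record does not say whether a fall means rescue or toxicity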
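Fission yeast strain RE007, carrying one chromosomally integrated HIV-1 vpr copy, was seeded at OD 0.01 in PMG+AL medium with 23 nL pinned compound. After 24 h at 30 °C and 99% humidity, viability was read by BacTiter-Glo luminescence.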
NS1 inh: influenza NS1 inhibition. S. cerevisiae slowed by influenza A NS1, growth recovery by OD600. Potency, µM (titrated, usually from 46.1 µM), for inactives: at the top dose activity, positive = more growth. actives 0.4% (n = 270,000); also: actives are rising curves; nearly all actives have a fitted effect of over 50% in size
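Read-out: OD600 growth recovery of NS1-expressing budding yeast. Cells grown overnight at 30C in -URA glucose medium, washed, resuspended and diluted 1:100 in 2% galactose assay medium, pH 6.0. Same strain lacking NS1 served as positive control.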
Cruzain Triton: inhibitors of Trypanosoma cruzi cruzain with detergent; purified cruzain, Z-FR-AMC fluorescence, 0.01% Triton; Potency, µM, inactives show max response, negative = inhibition, actives largely listed as inhibitors; actives 0.43% (n = 200,000); AID 1478; active = well fitted curve in the direction sought with a large enough effect; inconclusive = small, poorly fitted or top-dose-only effect, or another doubt; inactive = no such curve, though single readings can be large; an effect the other way counts as inactive or inconclusive;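 also: plate controls were neutral wells for no effect and buffer without enzyme for full effect; nearly all actives have a fitted effect of over 40% in size; top concentration of the series not given in the record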
Target sequence (P25779 123-467 limits assumed): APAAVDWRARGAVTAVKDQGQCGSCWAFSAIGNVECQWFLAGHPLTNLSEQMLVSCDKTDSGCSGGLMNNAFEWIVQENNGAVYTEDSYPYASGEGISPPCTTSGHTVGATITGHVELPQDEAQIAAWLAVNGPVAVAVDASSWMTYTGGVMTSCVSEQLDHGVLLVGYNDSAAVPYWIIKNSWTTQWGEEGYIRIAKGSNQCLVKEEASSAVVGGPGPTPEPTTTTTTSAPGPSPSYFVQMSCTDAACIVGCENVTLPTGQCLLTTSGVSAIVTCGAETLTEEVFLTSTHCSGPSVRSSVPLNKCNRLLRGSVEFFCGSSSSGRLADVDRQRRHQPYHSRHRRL
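Sodium acetate buffer (100 mM, pH 5.5) containing 5 mM DTT and 0.01% Triton X-100 hosted 1.5 nM cruzain and test compound for 15 min at room temperature. Cleavage of 2 uM Z-FR-AMC was then tracked by fluorescence.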
Cruzain noTriton: cruzain (T. cruzi) inhibition without detergent; Potency, µM, for inactives: max response, negative = inhibition, actives largely listed as inhibitors; purified cruzain, Z-FR-AMC fluorescence, no detergent; P25779; actives 2.3% (n = 200,000); active = well fitted curve in the direction sought with a large enough effect; inconclusive = small, poorly fitted or top-dose-only effect, or another doubt; inactive = no such curve, though single readings can be large; an effect the other way counts as inactive or inconclusive;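 also: plate controls were enzyme without inhibitor for no effect and buffer without enzyme for full effect; nearly all actives have a fitted effect of over 40% in size; top concentration of the series not given in the record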
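Detergent-free condition (0.00005% Triton X-100) in acetate buffer pH 5.5 with DTT. 1.5 nM enzyme and compound were pre-mixed 15 min, then 2 uM Z-FR-AMC substrate added; reaction progress from fluorescence change between first and third reads (60 s).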
An asterisk follows results filed as active; ? = inconclusive; . = no result given; [ ] = another dose, or the depositor's remark. Unless noted, calls follow the shape of the dose curve; as a rule, active means well fitted rising curve with a large enough effect; inconclusive means small, poorly fitted or top-dose-only effect; inactive means no such curve, though single readings can be large or run the other way. Potency is read from the fitted curve at half-maximal effect.

Letter code – A = LASV entry inh; B = Marburg entry inh; C = SARS PLP yeast; D = StopGo reporter; E = RE007 growth inh; F = NS1 inh; G = Cruzain Triton; H = Cruzain noTriton
CC(NC(=O)[C@H](C)NC(=O)[C@@H]1CSC2c3ccccc3C(=O)N21)c1ccccc1 (some centres not stated)
  A: . | B: . | C: -6.1% | D: -8.1% | E: 2.6% | F: 5.2% | G: . | H: .
CC(=O)Nc1ccc(S(=O)(=O)N(C)CC(=O)OCC(=O)N(C)c2ccccc2)cc1
  A: 0.0% | B: 0.1%[46.1 µM] | C: 4.2% | D: -6.9% | E: 14.6% | F: -3.5% | G: . | H: .
O=C(NC(=S)Nc1ncccn1)c1ccccc1Br
  A: 4.8%[46.1 µM] | B: ? | C: -1.1% | D: 31.1%[activator] | E: 1.1% | F: 15.2% | G: . | H: .
CC(C)CCNC(=O)[C@@H](NC(=O)c1c(F)cccc1F)C(C)C
  A: -1.8% | B: 17.6% | C: -0.2% | D: -5.9% | E: -7.9% | F: 0.8% | G: 5.3% | H: -4.0%
O=C(c1cccc(Cl)c1)N1CCN(Cc2ccccc2F)CC1
  A: 0.4% | B: 8.1% | C: . | D: -23.8% | E: -16.7% | F: -35.0% | G: 5.7% | H: 6.7%
CCOC(=O)C(=O)Nc1cccc(C(=O)OCC)c1
  A: 1.7% | B: ? | C: -13.2% | D: -14.3% | E: 2.0% | F: 0.4% | G: 1.3% | H: -0.1%
Cc1cccn2c3c(c(=O)nc12)C(c1ccc(F)cc1)CC(=O)N3 (configuration not stated)
  A: 1.1%[46.1 µM] | B: . | C: . | D: 3.9% | E: . | F: . | G: 0.9% | H: 3.7%
C=C(C)c1ccccc1
  A: . | B: . | C: -1.2% | D: 0.0% | E: -3.0% | F: . | G: 4.2% | H: -2.4%
CCN(C(=O)CSc1nc2cc(Cl)ccc2c(=O)n1Cc1ccco1)C1CCS(=O)(=O)C1 (configuration not stated)
  A: -11.0%[46.1 µM] | B: -11.2%[46.1 µM] | C: -0.6% | D: -1.1% | E: -4.1% | F: 1.2% | G: . | H: .
Cc1ccc(S(=O)(=O)N(C)CC(=O)Oc2ccc(-c3nnco3)cc2)cc1
  A: 20.9%[46.1 µM] | B: 13.1% | C: 1.1% | D: 18.0% | E: 7.9% | F: . | G: . | H: .
FC(F)(F)c1cccc(Cn2nnnc2-c2ccc(Cl)cc2)c1
  A: 9.3% | B: ? | C: -21.2% | D: -11.6% | E: -20.6% | F: -8.0% | G: -3.1% | H: -11.2%
O=C(CCC(=O)OCC(=O)c1ccc(C(F)(F)F)cc1)OCC(=O)c1ccc(C(F)(F)F)cc1
  A: 8.7% | B: -0.4% | C: -5.9% | D: -4.4% | E: 18.4% | F: 3.0% | G: . | H: .
O=C(CCN1C(=O)COc2ccccc21)N1CCC2(CC1)OCCO2
  A: 22.1% | B: 22.5% | C: -14.5% | D: -6.7% | E: 12.0% | F: -7.3% | G: 4.9% | H: 4.8%
CCc1ccc2[nH]c(=O)c(CN(CCCN3CCOCC3)C(=O)Nc3ccccc3)cc2c1
  A: -8.5% | B: ? | C: -0.1% | D: 0.0% | E: -19.7% | F: -10.7% | G: -4.1% | H: 1.7%
O=C1CC(c2ccccc2)SC(N(c2ccccc2)c2ccccc2)=N1 (configuration not stated)
  A: ? | B: ? | C: 5.7% | D: ? | E: 21.7% | F: 4.4% | G: -3.7% | H: -2.3%
CCn1cc(CN2CCc3c([nH]c4ccccc34)C2c2ccc(F)c(OC)c2)c(C)n1 (configuration not stated)
  A: -0.2%[46.1 µM] | B: ? | C: -1.5% | D: -23.7% | E: 0.3% | F: -0.6% | G: . | H: .
CC(CCc1ccccc1)NC(=O)CCC(=O)N1CCC(C(=O)O)CC1 (configuration not stated)
  A: . | B: . | C: 2.0% | D: -8.9% | E: 6.4% | F: 6.4% | G: . | H: .
Cc1ccc(SCc2ccc(C(=O)Nc3nccs3)o2)cc1
  A: ? | B: 2.6%[46.1 µM] | C: -7.0% | D: 21.2% | E: -11.3% | F: 0.4% | G: . | H: .
COc1cccc(-c2nnc(SCC(=O)OC(C)C)n2N)c1
  A: 10.0% | B: -2.1% | C: 5.8% | D: 5.9% | E: -7.9% | F: 3.2% | G: 5.1% | H: -4.7%
CCC(c1nnnn1CCOC)N1CCN(Cc2ccccc2)CC1 (configuration not stated)
  A: 5.9% | B: -1.6% | C: 7.2% | D: -23.6% | E: 3.1% | F: 2.5% | G: 2.1% | H: -10.3%
CCC1(C)C(Nc2c(C)cccc2C)=NC(=S)N1c1ccc(NC(C)=O)cc1 (configuration not stated)
  A: 6.3% | B: 0.5% | C: 6.7% | D: -5.2% | E: 12.5% | F: 13.3% | G: 2.6% | H: 9.4%
Cc1ccccc1CS(=O)(=O)Cc1ccc(C(=O)N2CCC3(CC2)OCCO3)o1
  A: 3.5% | B: 21.6% | C: 3.9% | D: -19.8% | E: -0.3% | F: -1.0% | G: 1.7% | H: 1.3%
Cc1ccc(N(C(C)C(=O)Nc2c(C)n(C)n(-c3ccccc3)c2=O)S(C)(=O)=O)cc1C (configuration not stated)
  A: -6.6% | B: 7.8%[46.1 µM] | C: -0.3% | D: -0.5% | E: -4.2% | F: . | G: . | H: .
O=C(Nc1ccc(Cl)cn1)c1ccccc1[N+](=O)[O-]
  A: -24.1% | B: -29.9%[46.1 µM] | C: 3.0% | D: 25.4% | E: -4.1% | F: . | G: . | H: .
CCCCCCn1c(N2CCCC2)nc2c1c(=O)n(C)c(=O)n2C
  A: -19.4% | B: ? | C: -5.2% | D: 28.2µM* | E: -18.2% | F: -43.2% | G: . | H: .

Another view of part of the listing above.
Every second line gives: LASV entry inh | Marburg entry inh | SARS PLP yeast | StopGo reporter | RE007 growth inh | NS1 inh | Cruzain Triton | Cruzain noTriton
CCN(C(=O)CSc1nc2cc(Cl)ccc2c(=O)n1Cc1ccco1)C1CCS(=O)(=O)C1 (configuration not stated)
 : -11.0%[46.1 µM] | -11.2%[46.1 µM] | -0.6% | -1.1% | -4.1% | 1.2% | . | .
Cc1ccc(S(=O)(=O)N(C)CC(=O)Oc2ccc(-c3nnco3)cc2)cc1
 : 20.9%[46.1 µM] | 13.1% | 1.1% | 18.0% | 7.9% | . | . | .

The main list resumes; the 7 compounds before the break are reprinted first.
Letter code – A = LASV entry inh; B = Marburg entry inh; C = SARS PLP yeast; D = StopGo reporter; E = RE007 growth inh; F = NS1 inh; G = Cruzain Triton; H = Cruzain noTriton
COc1cccc(-c2nnc(SCC(=O)OC(C)C)n2N)c1
  A: 10.0% | B: -2.1% | C: 5.8% | D: 5.9% | E: -7.9% | F: 3.2% | G: 5.1% | H: -4.7%
CCC(c1nnnn1CCOC)N1CCN(Cc2ccccc2)CC1 (configuration not stated)
  A: 5.9% | B: -1.6% | C: 7.2% | D: -23.6% | E: 3.1% | F: 2.5% | G: 2.1% | H: -10.3%
CCC1(C)C(Nc2c(C)cccc2C)=NC(=S)N1c1ccc(NC(C)=O)cc1 (configuration not stated)
  A: 6.3% | B: 0.5% | C: 6.7% | D: -5.2% | E: 12.5% | F: 13.3% | G: 2.6% | H: 9.4%
Cc1ccccc1CS(=O)(=O)Cc1ccc(C(=O)N2CCC3(CC2)OCCO3)o1
  A: 3.5% | B: 21.6% | C: 3.9% | D: -19.8% | E: -0.3% | F: -1.0% | G: 1.7% | H: 1.3%
Cc1ccc(N(C(C)C(=O)Nc2c(C)n(C)n(-c3ccccc3)c2=O)S(C)(=O)=O)cc1C (configuration not stated)
  A: -6.6% | B: 7.8%[46.1 µM] | C: -0.3% | D: -0.5% | E: -4.2% | F: . | G: . | H: .
O=C(Nc1ccc(Cl)cn1)c1ccccc1[N+](=O)[O-]
  A: -24.1% | B: -29.9%[46.1 µM] | C: 3.0% | D: 25.4% | E: -4.1% | F: . | G: . | H: .
CCCCCCn1c(N2CCCC2)nc2c1c(=O)n(C)c(=O)n2C
  A: -19.4% | B: ? | C: -5.2% | D: 28.2µM* | E: -18.2% | F: -43.2% | G: . | H: .
CCn1c(CNC(=O)c2ccccc2Br)nnc1SCC(=O)Nc1nncs1
  A: ? | B: 10.7%[46.1 µM] | C: 12.2% | D: -3.7% | E: -10.5% | F: 14.3% | G: . | H: .
O=C(O)c1cccc(Oc2ccc([N+](=O)[O-])cc2)c1
  A: -15.6% | B: 14.3% | C: 6.3% | D: 0.0% | E: -3.8% | F: -24.0% | G: -3.6% | H: 3.8%
Cc1ccc(S(=O)(=O)N2CCCN(S(=O)(=O)c3ccc(C(F)(F)F)cc3)CC2)cc1
  A: -34.3%[14.3 µM] | B: ? | C: -1.7% | D: 1.9% | E: 12.0% | F: -8.1% | G: 1.2% | H: ?
COc1ccc(/C=N/NC(=O)c2cc(-c3ccccc3)nc3ccccc23)c(OC)c1
  A: . | B: . | C: 0.5% | D: -9.5% | E: -6.3% | F: ? | G: . | H: .
CC(=O)N1CCOc2ccc(S(=O)(=O)Nc3ccc(C)cn3)cc21
  A: . | B: . | C: 2.1% | D: 30.4%[activator] | E: 9.9% | F: 3.0% | G: . | H: .
Cc1c(N2C(=O)CSC2c2ccco2)c(=O)n(-c2ccccc2)n1C (configuration not stated)
  A: 3.8% | B: -4.7% | C: -0.6% | D: 11.2% | E: -3.7% | F: 0.3% | G: . | H: .

Screening results deposited in PubChem BioAssay by National Center for Advancing Translational Sciences (NCATS).
